INS promoter inh = TRM-6 insulin promoter activity inhibition. AID 1273. inhibition, % at 2 µM. 130,000 tested, 0.9% active. TRM-6 cells (human fetal islet line), insulin promoter-eGFP reporter, imaging; reporter expression induced with tamoxifen;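 active = inhibition above the mean plus 3 SD, with well images judged a real hit on visual review, cut at about 60% in these data, passing the limit was not always enough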
GALR2 agonist = activates the human galanin receptor 2 | O43603 | GALR2-expressing cells, agonist activation read-out | activation, %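 (tested at 5 µM)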 | 140,000 tested, 0.48% active | AID 803;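 active = above mean plus 3 SD of all compounds, about 5% in these data, not always enough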;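 also: 0% = vehicle buffer wells and 100% = reference agonist at full effect; tested in CHO reporter cells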
Target sequence (O43603 whole entry, looked up): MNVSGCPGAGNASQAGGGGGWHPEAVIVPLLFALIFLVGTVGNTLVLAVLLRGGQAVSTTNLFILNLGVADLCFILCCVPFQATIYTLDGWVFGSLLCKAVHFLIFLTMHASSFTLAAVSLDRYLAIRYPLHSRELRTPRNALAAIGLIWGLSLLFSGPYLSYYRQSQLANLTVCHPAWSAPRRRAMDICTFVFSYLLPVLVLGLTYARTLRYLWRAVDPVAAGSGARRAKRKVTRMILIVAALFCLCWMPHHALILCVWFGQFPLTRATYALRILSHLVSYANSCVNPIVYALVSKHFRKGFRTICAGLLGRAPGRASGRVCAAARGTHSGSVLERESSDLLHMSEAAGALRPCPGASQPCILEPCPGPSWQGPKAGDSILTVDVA
PKD1 kinase inh = blocks activity of human protein kinase D1; PKD1 kinase fluorescence polarization assay; inhibition, %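 (about 10 µM by stock and volumes)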; 200,000 tested, 0.056% active; AID 797;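 active = inhibition of 50% or more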;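 also: controls were vehicle for no effect and a reference inhibitor for full effect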
RGS16-Gao = regulators of human RGS16-Galphao interaction | O15492+P09471 | AID 1441 | binding response (% of control), % at 10 µM | 220,000 tested, 0.38% active | bead-based flow cytometry RGS16-Galphao binding, fluorescence; actives lie on both sides;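 active = below 25% or above 175%, edge rows of some plates excepted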;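 also: Galphao activated by GDP with aluminum fluoride before binding; 100% = wells without compound and 0% = beads without RGS; some results beyond the cut were filed as inactive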
Target sequence (O15492 whole entry, looked up): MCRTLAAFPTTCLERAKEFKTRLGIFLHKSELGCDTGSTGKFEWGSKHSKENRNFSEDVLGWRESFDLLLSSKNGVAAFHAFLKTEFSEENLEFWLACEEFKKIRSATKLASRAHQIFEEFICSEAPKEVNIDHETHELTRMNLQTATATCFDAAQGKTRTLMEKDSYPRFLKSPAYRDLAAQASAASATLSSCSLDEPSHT
Target sequence (P09471 whole entry, looked up): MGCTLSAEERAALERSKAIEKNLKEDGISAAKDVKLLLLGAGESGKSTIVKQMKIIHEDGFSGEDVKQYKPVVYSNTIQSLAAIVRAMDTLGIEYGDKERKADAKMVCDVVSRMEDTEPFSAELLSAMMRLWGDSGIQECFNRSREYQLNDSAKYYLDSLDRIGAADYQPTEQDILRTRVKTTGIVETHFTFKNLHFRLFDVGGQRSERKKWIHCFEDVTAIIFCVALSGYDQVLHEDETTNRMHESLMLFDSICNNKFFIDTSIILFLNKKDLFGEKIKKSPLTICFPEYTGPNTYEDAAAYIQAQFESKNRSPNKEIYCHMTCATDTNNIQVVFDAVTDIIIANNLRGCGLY
HSV augment = increases HSV replication in cells | HSV replication augmentation in cells, fold increase | 220,000 tested, 0.005% active | maximum fold increase | AID 1956;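 active = peak rise of 1.5-fold or more in the series; tested in PC3 cells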;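 also: first round at 10 µM; read as green reporter fluorescence; hits show the peak of a series up to 25 µM; 1 = signal of infected wells without compound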
INS promoter inh cell count = further read-out of INS promoter inh, marked with its call; normalized cell count, %; measured here: cell count, toxicity; reference of the scale not given here;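 cells exposed to compound for 48 h; stained nuclei by imaging scaled within each plate; lower means fewer cells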
HSV augment primary fold = also measured in HSV augment; calls as there; fold increase; compound at 10 µM; measured here: primary screen fold increase 10 uM; tested in PC3 cells;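 GFP signal in the first replicate; 1 = infected wells without compound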
* marks the source's active call; other numbers are inactive results; i = inactive; nt = no result given.

Every second line gives: INS promoter inh	INS promoter inh cell count	GALR2 agonist	PKD1 kinase inh	RGS16-Gao	HSV augment	HSV augment primary fold
1. CCCN1CCC(=O)N([C@H](CSc2ccc(Br)cc2)c2ccccc2)CC1
  nt	nt	nt	nt	102	i	0.66
2. Cc1ccc(Oc2nccc(-c3ccc(Cl)cc3)n2)cc1
  23	134	-0.2	2	103	i	1.1
3. CC(C)C(=O)Nc1cccc(C(=O)Nc2nncs2)c1
  -45	141	-2.9	12	101	i	1.1
4. CCNC(=O)CC1C(=O)N(c2ccccc2)C(=O)N1CCC(C)C (stereo unspecified)
  -277	108	-1.1	-10	105	i	1
5. C=CCNC(=O)/C(=C\c1ccc([N+](=O)[O-])cc1)NC(C)=O
  nt	nt	-1.4	6	134	i	0.83
6. CCCn1c(C)cc(C(=O)COc2ccc(S(=O)(=O)N(CC)CC)cc2[N+](=O)[O-])c1C
  -89	94	-0.1	-5	99	i	0.91
7. CCOC(=O)c1[nH]c(C=O)c(C(=O)OCC)c1C
  -364	6	nt	2	101	i	0.75
8. CCOc1ccc(S(=O)(=O)n2nc(C)cc2C)c2ccccc12
  nt	nt	-1.9	-4	101	i	1
9. O=c1[nH]n(CCO)c(=O)c2cccnc12
  nt	nt	nt	nt	103	i	0.9
10. O=[N+]([O-])c1ccc(N/N=C2/CCCCC2c2ccccn2)cc1 (stereo unspecified)
  nt	nt	-2.4	8	105	i	1.2
11. c1ccc2c(c1)C(=Nn1cnnc1)c1ccccc1-2
  12	55	0.3	2	106	i	0.92
12. Cc1onc(-c2c(F)cccc2Cl)c1C(=O)NC(=S)NC1CCS(=O)(=O)C1 (stereo unspecified)
  23	108	-2.1	6	106	nt	nt
13. COc1ccc2c(C)nc(N/C(N)=N/S(=O)(=O)c3ccc(C)cc3)nc2c1
  -5	108	nt	0	108	i	0.89
14. O=C(NCCCNc1ccc([N+](=O)[O-])cc1)C(F)(F)F
  38	135	-2.1	8	104	i	1
15. O=C1CCN(CCc2ccccc2)CCN1[C@H](CSc1ccc(Br)cc1)Cc1ccccc1
  nt	nt	nt	nt	101	i	1
16. Cc1cccc(C(=O)n2c(=S)nc3ccccn32)c1
  29	121	-1.7	1	97	i	0.98
17. O=C(O)CCn1cc(/C=C2\NC(=S)N(c3ccccc3)C2=O)c(-c2ccc(Br)cc2)n1
  nt	nt	nt	-6	93	i	1
18. c1ccc(C2CC(c3ccccc3)n3ncnc3N2)cc1 (stereo unspecified)
  nt	nt	-1.2	-9	101	i	0.92
19. CCCCNC(=O)CN1C(=O)c2cccc(N)c2C1=O
  17	61	nt	5	109	i	1.1
20. COc1ccc2c(c1)cc(C)c1nnc(SCC(=O)N(C)c3nc(-c4ccccc4)cs3)n12
  13	60	-0.5	-14	105	i	0.86
21. CN(C)CCOC(=O)CCc1ccccc1
  nt	nt	-1.4	-4	120	i	0.96
22. O=C(CN1CCN(C(=O)c2ccco2)CC1)Nc1cc(Cl)ccc1Cl
  5	52	-1.7	-4	99	i	0.85
23. CN(C)c1ccc(NC(=O)CN2CCC(O)(c3ccccc3)CC2)cc1
  nt	nt	nt	-8	103	i	0.96
24. Cc1ccc(S(=O)(=O)N(C)Cc2nc(-c3ccc(Br)cc3)no2)cc1
  nt	nt	-1.9	-10	99	i	0.75
25. C/C(CC1(O)C(=O)Nc2ccccc21)=N\O (stereo unspecified)
  17	117	-1.5	-7	93	i	0.87
26. COc1cc(NS(=O)(=O)c2ccc(C)c(C)c2)c(OC)cc1Cl
  -43	98	-0.4	-2	102	i	1.1
27. CCc1ccc(C2c3[nH]c4ccccc4c3CCN2C(=O)CN2CCN(CC)CC2)cc1 (stereo unspecified)
  nt	nt	nt	-3	104	i	0.7
28. COC(=O)Nc1ccc(S(=O)(=O)N2CCCC(C(=O)O)C2)cc1 (stereo unspecified)
  58	97	nt	3	104	i	0.99
29. CC1(C)Cc2c(C#N)c(N3CCN(C(=O)c4ccccc4)CC3)nc(Cc3ccccc3)c2CO1
  24	86	0.0	-6	108	i	1
30. CCN(CC)CC(=O)Nc1ccc(-c2nc3cc(NC(=O)CN(CC)CC)ccc3o2)cc1
  nt	nt	-1.1	4	96	i	0.73

Nos. 29 to 30, reprinted for reference:
Every second line gives: INS promoter inh	INS promoter inh cell count	GALR2 agonist	PKD1 kinase inh	RGS16-Gao	HSV augment	HSV augment primary fold
29. CC1(C)Cc2c(C#N)c(N3CCN(C(=O)c4ccccc4)CC3)nc(Cc3ccccc3)c2CO1
  24	86	0.0	-6	108	i	1
30. CCN(CC)CC(=O)Nc1ccc(-c2nc3cc(NC(=O)CN(CC)CC)ccc3o2)cc1
  nt	nt	-1.1	4	96	i	0.73

Arranged by formula weight (falling): five of the compounds above
Every second line gives: INS promoter inh	INS promoter inh cell count	GALR2 agonist	PKD1 kinase inh	RGS16-Gao	HSV augment	HSV augment primary fold
27. CCc1ccc(C2c3[nH]c4ccccc4c3CCN2C(=O)CN2CCN(CC)CC2)cc1 (stereo unspecified)
  nt	nt	nt	-3	104	i	0.7
22. O=C(CN1CCN(C(=O)c2ccco2)CC1)Nc1cc(Cl)ccc1Cl
  5	52	-1.7	-4	99	i	0.85
26. COc1cc(NS(=O)(=O)c2ccc(C)c(C)c2)c(OC)cc1Cl
  -43	98	-0.4	-2	102	i	1.1
28. COC(=O)Nc1ccc(S(=O)(=O)N2CCCC(C(=O)O)C2)cc1 (stereo unspecified)
  58	97	nt	3	104	i	0.99
21. CN(C)CCOC(=O)CCc1ccccc1
  nt	nt	-1.4	-4	120	i	0.96

Following part
Every second line gives: INS promoter inh	INS promoter inh cell count	GALR2 agonist	PKD1 kinase inh	RGS16-Gao	HSV augment	HSV augment primary fold
31. CC(=O)NC1C(=O)SC1(C)C (stereo unspecified)
  88*	154*	-0.1	-5	103	i	0.99
32. Cc1nnc(SCc2ccc(CSc3nnc(C)c(=O)[nH]3)cc2)[nH]c1=O
  nt	nt	nt	-2	104	i	1
33. O=[N+]([O-])c1ccc(N2CCCCCC2)c([N+](=O)[O-])c1
  nt	nt	-1.7	-2	101	i	0.82
34. O=C1c2[nH]nc(-c3ccccc3O)c2C(c2ccccc2F)N1Cc1ccco1 (stereo unspecified)
  16	73	0.2	-4	107	i	0.8
35. CCOC(=O)N1CCC(NC(=O)C2CCCN(S(=O)(=O)c3cccc4nsnc34)C2)CC1 (stereo unspecified)
  nt	nt	0.6	12	88	i	0.97
36. O=c1c2ccccc2ncn1CCOCCOc1ccc([N+](=O)[O-])cc1
  nt	nt	nt	-6	103	i	1
37. CC(=O)N(C1=C(N2CCOCC2)C(=O)c2ccccc2C1=O)c1ccc(C(=O)O)cc1
  nt	nt	nt	nt	98	i	1.2
38. COc1ccc(-c2cn3cccnc3n2)cc1
  nt	nt	nt	1	101	i	1.1
39. O=[N+]([O-])c1[nH]cnc1/C=C/c1ccccc1
  nt	nt	nt	nt	103	i	1.1
40. CCNc1nc(NCc2ccccc2)nc(Oc2ccc(=O)[nH]n2)n1
  -130	109	-3.6	3	101	i	1
41. CCOC(=O)CNC(=S)n1cnc(N)n1
  -50	102	nt	-2	100	i	1.1
42. Cc1ccc(N=Cc2c(O)[nH]c3ccccc23)c([N+](=O)[O-])c1
  nt	nt	nt	2	93	i	0.96
43. Cc1ccc2c(c1)nnn2C1CCN(CC(=O)Nc2ccc3c(c2)OCCO3)CC1
  25	113	-2.3	-6	99	i	0.98
44. COc1cc(SC)ccc1C(=O)NCC1CCCO1 (stereo unspecified)
  39	93	-3.2	-4	101	i	1
45. Cc1cc(C)c(C#N)c(SCc2ccc([N+](=O)[O-])cc2)n1
  nt	nt	nt	5	102	i	1
46. CCN1C(=O)/C(=C2\SC(N3CCCCC3)=NC2=O)c2ccccc21
  nt	nt	1.8	-6	103	i	1.1
47. Cc1cccc(C)c1NC(=O)c1ccc(-n2cnnn2)cc1
  nt	nt	-0.1	-3	101	i	0.75
48. O=C(/C=C/Nc1ccc(Br)cc1F)c1ccco1
  59	103	nt	1	98	i	1.1
49. CCOC(=O)CNC(=O)C(Cc1ccccc1)NS(=O)(=O)c1cccs1 (stereo unspecified)
  -106	44	-1.0	-20	107	i	1
50. Clc1ccc(Sc2ccc(/C=N/n3cnnc3)o2)cc1
  -5	193	-1.9	-11	115	i	0.81
51. CC1(c2ccccc2)CC(C)(C)N2C(=O)C3(C(C#N)=C(N)Oc4cc(O)ccc43)c3cccc1c32 (stereo unspecified)
  31	111	-0.6	3	103	i	0.85
52. COc1ccc(C2CC(c3ccc4ccccc4c3)=NN2C(=O)COC(=O)C2CCC(=O)N2)cc1 (stereo unspecified)
  nt	nt	nt	-3	98	i	1
53. CN1C[C@@H]2C(c3ccccc3)C3(c4cccnc4)CC2(C3)[C@H]1c1ccccc1 (stereo partly specified)
  nt	nt	nt	nt	88	i	0.99
54. CCCc1nnc(NC(=S)Nc2ccccc2)s1
  0	126	nt	4	102	i	0.92
55. On1c(-c2ccccc2)nc2ccccc21
  nt	nt	nt	nt	107	i	0.89
56. Cc1ccccc1NC(=O)Cn1c(=O)sc2ccccc21
  nt	nt	nt	-5	99	i	0.97
57. COc1ccc(N(C(=O)CNS(=O)(=O)c2ccccc2)C(C(=O)NCc2ccco2)C(C)C)cc1 (stereo unspecified)
  nt	nt	nt	-3	104	i	1
58. Cc1cc(C)nc(N2C(=O)CC(C(C)c3ccccc3)C2=O)n1 (stereo unspecified)
  -306	97	-1.2	2	99	i	0.93
59. CCS(=O)(=O)N1CCC(c2nc(-c3ccc(C(F)(F)F)cc3)no2)CC1
  -82	109	-0.4	-15	48	i	1.1
60. CC(C)N(Cc1cn[nH]c1-c1ccc(-c2ccccc2)cc1)Cc1nccn1C
  -100	97	nt	-7	106	i	0.72
61. C=CCn1c(CSc2nc3ccccc3s2)nnc1SCC(=O)NCc1cccnc1
  -400	85	-0.5	-9	107	i	0.99
62. O=C(c1c(F)c(F)c(F)c(F)c1F)N1CCc2ccccc21
  -24	76	-2.4	-7	nt	i	0.94
63. O=C(N/N=C\c1cc(Br)c(Br)o1)c1cncc(Br)c1
  39	113	-1.0	-4	104	i	1.1
64. CCOC(=O)c1c(/N=C/C2C(=O)CC(C)(C)CC2=O)sc(C)c1C
  16	82	0.4	-7	120	i	0.94
65. CC1CCCCN1C(=O)C1CC(c2ccc(F)cc2)=NO1 (stereo unspecified)
  nt	nt	0.0	-4	107	i	1.1
66. O=[N+]([O-])c1cc(Cc2ccccc2)cc(C=Nc2ccc(N3CCOCC3)cc2)c1O
  -26	113	-2.0	4	91	i	0.83
67. CC/C=C/C(=O)N1CC2(CC(c3cccc(NC(=O)CC(c4ccccc4)c4ccccc4)c3)=NO2)C[C@@H]1C(N)=O (stereo partly specified)
  nt	nt	nt	nt	100	i	0.77
68. Cn1cnnc1SCc1ccc(-c2ccc(Br)cc2)o1
  nt	nt	0.1	-7	97	i	0.88
69. Cn1nc(-c2ccccc2)c(COC(=O)c2cccc(Cl)c2)c1S(=O)(=O)c1ccccc1
  3	169	-2.8	-8	86	i	1.1
70. Cc1ccc(C)c(OC(=O)c2cncc(Br)c2)c1
  0	104	-0.1	-8	108	i	0.86
71. O=C(c1ccco1)N1CCN(C(=O)c2ccccc2OC(=O)C23CC4CC(CC(C4)C2)C3)CC1
  -48	70	0.3	1	105	i	0.94
72. CC(CN1CCCCC1)OC(=O)c1ccc(Cl)cc1Cl (stereo unspecified)
  -123	117	-3.0	1	102	i	1
73. O=C(c1ccccc1NS(=O)(=O)c1cccc2cccnc12)N1CCOCC1
  17	163	nt	-7	102	i	0.9
74. Cc1ccc(S(N)(=O)=O)cc1NC(=O)C1CC2CCC1C2 (stereo unspecified)
  nt	nt	-1.2	3	70	i	0.95
75. CCOC(=O)C(C)On1c(-c2cccc(Cl)c2)nc2ccc([N+](=O)[O-])cc21 (stereo unspecified)
  10	128	-1.7	8	103	i	0.79

Screening data deposited in PubChem BioAssay by several laboratories.
